# Biofilm kill mix: mixtures killing C. albicans biofilm. C. albicans biofilm persisters + clotrimazole, fluorescence viability; primary screen in compound mixtures of four per well. inhibition, % at 7.6 µM. 120,000 tested, 0.02% active. AID 1242;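 active = inhibition above 30.3% in the primary screen of four-compound pools, then above 30% when the compound was retested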;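 also: compounds exposed to preformed 24 h biofilms for 48 h; the number belongs to the whole pool; some results filed as inactive read as strong as hits; inactives centre near 12; 0% = biofilm with clotrimazole alone and 100% = kill control; retested singly at about 60 µM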
#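 System: C. albicans CAF4-2 wild-type biofilms; Medium: RPMI/MOPS medium, pH 7.0; Reagent: Clotrimazole, 50 µg/mL; Times: biofilm formation 24 h, compound exposure 48 h, 37 °C; Detection: 2-h Alamar Blue fluorescence, 535/590 nm excitation/emission; Evaluation: percent inhibition of biofilm viability.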
# * hit, by the source's call.
SMILES,Biofilm kill mix
Cc1ccc(C)c(NC(=O)CSc2nnc(-c3n[nH]c4ccccc34)o2)c1,16
Cc1ccc(/C=N/NC(=O)CSc2nnc(-c3ccc(Cl)cc3)n2-c2ccc(Cl)cc2)o1,12
c1ccc(-c2ccnc3ncnn23)nc1,-8
COc1ccc(S(=O)(=O)NCC2CCCN(C(=O)CN3CCCCC3)C2)cc1 (centres undefined),10
c1ccc2oc(-c3csc(NCC4CCCO4)n3)cc2c1 (centres undefined),-17
COC(=O)c1cn(-c2ccccc2)c(=O)c2ccccc12,3
COc1ccc(S(=O)(=O)N2CCOCC2)cc1OC,12
COc1ccc(/C(O)=C2/C(=O)C(=O)N(c3ncccn3)C2c2ccc(OC)cc2)cc1 (centres undefined),10
CN1CCC(=NNC(=O)C(=O)Nc2ccccc2F)CC1,16
Cc1cc(=O)oc2cc(OC(=O)c3nn(C(C)C)c(=O)c4ccccc34)ccc12,14
Cc1ccc2cc(CCNC(=O)c3ccc(S(=O)(=O)N4CCCCC4)cc3)c(=O)[nH]c2c1,7
COc1ccccc1CCc1nnc(CCC(=O)N(C)Cc2cccc3cnccc23)o1,13
O=C(NC(Cc1c[nH]c2ccccc12)C(=O)O)c1ccc(Br)cc1 (centres undefined),8
COc1ccc(CN2CCN(CCC(C)C)C(CCO)C2)cc1Cn1cncn1 (centres undefined),20
CCc1ccccc1N(C)S(=O)(=O)c1ccc2[nH]cc(C(=O)O)c(=O)c2c1,6

# Compounds listed so far that contain a COOH group:
SMILES,Biofilm kill mix
O=C(NC(Cc1c[nH]c2ccccc12)C(=O)O)c1ccc(Br)cc1 (centres undefined),8
CCc1ccccc1N(C)S(=O)(=O)c1ccc2[nH]cc(C(=O)O)c(=O)c2c1,6

# Continuation:
SMILES,Biofilm kill mix
Cc1csc(NC(=O)CCCc2cccs2)n1,12
COc1ccccc1NC(=O)CSc1nncn1-c1cccnc1,8
CCCC(CCC)C(=O)OC1C[C@H]2CC[C@@H](C1)[N+]2(C)C (some centres undefined),15
COc1ccccc1NC(=O)/C(=C\c1cccs1)NC(=O)c1ccco1,10
Cc1cc(NS(=O)(=O)c2ccc(NC(=O)/C=C/c3ccco3)cc2)nc(C)n1,15
COc1cc(NC(=O)c2cc(C)nc3ccccc23)cc(OC)c1OC,16
COc1cc(NC(=O)CN2C(=O)c3ccccc3Sc3ccc(C(=O)N4CCOCC4)cc32)cc(OC)c1OC,15
CCC1CCC2(CC1)NC(=O)N(CC(=O)Nc1cc(C)on1)C2=O (centres undefined),6
Cc1cc(/C=N/NC(N)=S)c(C)n1-c1ccc(Cl)cc1,13
CCOc1ccccc1-c1cc(-c2n[nH]c(=S)n2CC)c2ccccc2n1,21
CCC(=O)n1nc(-c2ccc(Cl)cc2)nc1N,4
Cc1ccc(C(C(=O)NC(C)(C)C)N(CCCN2CCOCC2)C(=O)c2ccc(-c3ccccc3)[nH]2)o1 (centres undefined),18
CCN(Cc1ccncc1)C(=O)c1ccc2c(c1)S(=O)(=O)c1ccccc1C2=O,11
CO/N=C\CC(=O)Nc1ccc(Cl)c(Cl)c1,18
CCOC(=O)c1c(/N=C/C2=C(O)CC(C)(C)CC2=O)sc(C(C)=O)c1C,14
Nc1cc(S(=O)(=O)Nc2ccc(Br)cc2)ccc1Cl,10
C/C(=N\NC(=S)NCc1ccccc1)c1cccs1,7
CCCN(C(=O)CSc1cc(-c2ccccc2)c2ccc(OC)cc2n1)C1CCS(=O)(=O)C1 (centres undefined),18
Cc1ccc(S(=O)(=O)N(C)c2ccc3ccccc3c2)cc1,-3
Cc1cccc(OCC(=O)Nc2cc(C)on2)c1,13
O=C(O)c1cc(/C=C/C(=O)c2cc(F)ccc2O)c2c(c1)COCO2,5
COc1ccccc1NC(=O)Nc1cccnc1,16
CC(C)CC(NC(N)=O)C(=O)OCC(=O)N(Cc1ccccc1)Cc1ccccc1 (centres undefined),-13
Cc1c(N2C(=O)CSC2c2ccc([N+](=O)[O-])cc2)c(=O)n(-c2ccccc2)n1C (centres undefined),12
NC(=O)CC[C@@H]1NC(=O)[C@@H]2CCCN2C(=O)c2cc([N+](=O)[O-])cc(F)c2NCCC[C@@H](C(N)=O)NC1=O,-1
Cc1nn(Cc2ccc(F)cc2)c(C)c1NC(=O)c1cc2ncc(Br)cn2n1,27
Cc1ccc(NC(=O)c2c(C)noc2-c2snnc2C)cc1,6
CCN1C(=O)CSc2ccc(C(=O)OC)cc21,2
O=C(CSc1ncn[nH]1)Nc1cccc(S(=O)(=O)N2CCCCCC2)c1,13
COc1ccccc1C(C[N+](=O)[O-])c1c[nH]c2ccccc12 (centres undefined),27

# Molecules from the list above that contain two or more sulfur atoms:
SMILES,Biofilm kill mix
Cc1csc(NC(=O)CCCc2cccs2)n1,12
C/C(=N\NC(=S)NCc1ccccc1)c1cccs1,7
CCCN(C(=O)CSc1cc(-c2ccccc2)c2ccc(OC)cc2n1)C1CCS(=O)(=O)C1 (centres undefined),18
O=C(CSc1ncn[nH]1)Nc1cccc(S(=O)(=O)N2CCCCCC2)c1,13

# Other compounds
SMILES,Biofilm kill mix
CSCCCNC(=S)N1CCc2ccccc2C1,-5
O=C(O)CC(=O)Nc1ccc(Oc2ccc(C(F)(F)F)cn2)c(Cl)c1,8
Cn1nnc2ccccc2c1=O,10
O=C(Nc1cccc(-c2cn3c(n2)SCC3)c1)c1ccc2ccccc2n1,-4
COc1ccc(CCNC(=O)CN(c2cccc([N+](=O)[O-])c2)S(C)(=O)=O)cc1,10
CC(C)Oc1ccc(CSc2ncn[nH]2)cc1,16
COc1ccc(N2C(=O)C(Cl)=C(Oc3cccc(OC)c3)C2=O)cc1,5
Cc1cccc(NC(=O)/C(C#N)=C/c2ccc(Sc3ccccc3)o2)c1C,7
COc1cccc(-n2c(SCc3ccccn3)nc3c(c2=O)SCC3)c1,4
N#Cc1c(NC(=O)C2C3C=CC(C3)C2C(=O)O)sc2c1CCCCC2 (centres undefined),5
O=C(CC1NCCc2ccccc21)Nc1cccc(Cl)c1 (centres undefined),21
O=c1c(Cc2ccc(F)cc2)c(O)ccn1CCc1ccccn1,14
COc1ccc(S(=O)(=O)N2CCOCC2)cc1NC(=O)CSc1nnc2ccccn12,6
Cc1ccccc1NC(=S)N=Nc1c(O)n(C)c2ccc(S(=O)(=O)N3CCOCC3)cc12,8
O=C(Nc1ccc2[nH]ccc2c1)c1ccccc1,15
COc1cccc(-c2nc(-c3ccccc3)nc(N3CCN(C)CC3)c2C#N)c1,-17
COc1cccc(CC(=O)Nc2nc(C)cs2)c1,-3
Cc1ccc(C2(C)CC(C)(C)N(C(=O)CSc3nnc(C)s3)c3ccccc32)cc1 (centres undefined),15
Nc1nc(SCC(=O)O)[nH]c(=O)c1NC(=O)c1ccccc1F,8
O=S(=O)(c1ccc2nc(SCc3ccc(Cl)cc3)[nH]c2c1)N1CCOCC1,17
COc1ccc(NC(=S)NCCc2ccc(F)cc2)c(OC)c1,12
CCOC(=O)c1ccccc1NC(=O)CSc1nnc(C(C)C)n1CC,14
COc1cc(C)ccc1Oc1nc(-c2ccccc2O)nc2ccccc12,16
O=C(Cc1cccs1)N/N=C/C(Cl)=C/c1ccccc1,8
Cc1c(NC(=O)c2cc3c(s2)CCCC3)c(=O)n(-c2ccccc2)n1C,8
CN1C(=O)CC(C(=O)O)SC1=Nc1cc(Cl)cc(Cl)c1 (centres undefined),12
COc1ccc(/C=N/Nc2nc(N3CCCC3)nc(N3CCCC3)n2)c(OC)c1OC,15
CCc1ccc(N2C(=O)CN(Cc3cccs3)C2=S)cc1,21
Cc1ccsc1/C=N/NC(=O)CO,17
O=C(O)c1cccc(NS(=O)(=O)c2ccc(NC(=O)c3ccco3)cc2)c1,11
O=[N+]([O-])c1cc(C(F)(F)F)cc([N+](=O)[O-])c1NN=C1CCCCC1,15
CN(C(=O)COc1ncnc2c1cnn2-c1ccccc1)C1CCCCC1,14
O=C(CCCOc1ccc(Cl)cc1Cl)NNC(=O)c1ccc(NC(=O)c2ccccc2)cc1,14
COC(=O)CCCC1=CC2=CC(=O)C(C)(OC(=O)c3cccs3)C(=O)C2=CN1CC1CC1 (centres undefined),19
Cc1c(NC(=O)c2c(N)n(-c3ccccc3)c3nc4ccccc4nc23)c(=O)n(-c2ccccc2)n1C,4
CC(=O)N1c2ccc3ccccc3c2C2C=CCC2C1c1ccc(Br)cc1 (centres undefined),20
CCc1ccc(-n2c(=O)c3c(C)c(C)sc3n(CC(=O)NCC3CCCO3)c2=O)cc1 (centres undefined),3
O=C(OC1CCCCC1=O)c1cc(Cl)ccc1[N+](=O)[O-] (centres undefined),3
O=C(/C=C/c1ccco1)N(c1ccccn1)c1ccccn1,10
Cc1ccc(CC2C(=O)N(c3cc(Cl)ccn3)C(=O)C2C)cc1 (centres undefined),30
C=CCNC(=S)NC1CC(C)(C)NC(C)(C)C1,11
Cc1cccc(-n2c(O)c(C=Nc3ccccc3)c3ccccc3c2=O)n1,9
COC(=O)c1ccc(S(=O)(=O)N(Cc2ccccc2)Cc2ccccc2)n1C,8
COc1cccc(NC(=S)N(CCCN2CCC(C)CC2)Cc2cccs2)c1,-8
Cn1ccnc1C1CCCCN1C(=O)c1cc(COc2ccc(F)cc2F)on1 (centres undefined),19
C/C=C/C(=O)Nc1cccc(C2=NOC3(C2)C[C@H](C(N)=O)N(C(=O)c2ccccc2C(=O)c2ccccc2)C3)c1 (some centres undefined),13
Cc1csc(SCC(=O)NC(=O)NCCC(C)C)n1,9
CN(C)S(=O)(=O)N(CC(=O)Nc1ccc2ccccc2c1)c1ccccc1,12
CCN1C/C(=C/c2ccc(N3CCOCC3)cc2)C(=O)/C(=C/c2ccc(N3CCOCC3)cc2)C1,16
CC(C)(C)NC(=O)C(OC(=O)c1cccs1)c1ccccc1 (centres undefined),18
CC(=O)C1C(c2ccc(Cl)cc2)c2c(noc2C)CC1(C)O (centres undefined),25
O=C(NCc1cc(C(F)(F)F)cc(C(F)(F)F)c1)C1CC(c2cccc(F)c2)=NO1 (centres undefined),9
O=C(/C=C/Nc1ccc(F)c(F)c1)c1cccs1,14
CN1CCN(C(=O)C(N)Cc2ccccc2)CC1 (centres undefined),9
Cc1ccc(/C=C2\SC(=S)N(CCCC(=O)NNC(=O)c3ccccc3O)C2=O)cc1,4
Cc1csc2ncnc(N3CCN(C(=S)Nc4ccc(F)cc4F)CC3)c12,4
COc1ccc2c(c1)/C(=N/N1C(=O)c3ccccc3C1=O)C(=O)N2,22
O=C(c1ccc(N2CCCCCC2)c([N+](=O)[O-])c1)N1CCc2ccccc21,9
COc1ccc(C(C)(C)C)cc1NC(=O)COC(=O)c1ncc(Cl)c(Cl)c1Cl,4
CC(CCc1ccccc1)NC(=O)c1ccc(NC(=O)c2ccc(Cl)cc2Cl)cc1 (centres undefined),16
# Following part
SMILES,Biofilm kill mix
O=[N+]([O-])c1ccccc1-c1nc(-c2ccc(Br)o2)no1,9
CCOC(=O)c1cc(C#N)c(N2CCN(c3ccccn3)CC2)nc1-c1ccccc1,-9
COC(=O)CSc1nc(Cc2ccccc2)nc2ccccc12,19
COc1ccccc1CNC(=O)COC(=O)Cc1c(F)cccc1Cl,15
O=C(CCCC(=O)OCC(F)(F)C(F)F)Nc1ccccc1F,7
Cc1nc(NC(=O)CSc2nnc(-c3ccc4c(c3)OCO4)o2)c(Cl)cc1Cl,7
COc1cc([N+](=O)[O-])c(C(=O)N2CCOCC2)c([N+](=O)[O-])c1,5
O=C(c1ccc2ccccc2c1)C1CCCN(C(=O)CCn2cnnn2)C1 (centres undefined),-3
CCC(=O)N1CCN(c2ccc(NC(=O)c3ccc4c(c3)OCCO4)cc2)CC1,4
Cc1ccc(Nc2nc(COC(=O)C3CC3)cs2)cc1,-1
CCOc1ccccc1NC(=O)c1c(NC(=O)CCC(=O)O)sc2c1CCCCC2,7
COc1ccccc1CN1C[C@@H]2C[C@@H](c3ccccc3C)N3CCC[C@@]23C1=O,-3
CC(=O)NC1=NC(=O)/C(=C/c2cn(C(C)=O)nc2-c2ccccc2)S1,4
CCN(CC)S(=O)(=O)c1ccc(-c2nnc(SCC(=O)Nc3ccc(OC)cc3)o2)cc1,-6
Cc1ccc(NC(=O)C2(c3ccc([N+](=O)[O-])cc3)CCCC2)cc1,14

# Reformatted tab-delimited: part of the list above.
structure	Biofilm kill mix
Cc1ccc(C(C(=O)NC(C)(C)C)N(CCCN2CCOCC2)C(=O)c2ccc(-c3ccccc3)[nH]2)o1 (centres undefined)	18
CCC(=O)N1CCN(c2ccc(NC(=O)c3ccc4c(c3)OCCO4)cc2)CC1	4
COc1ccccc1NC(=O)/C(=C\c1cccs1)NC(=O)c1ccco1	10
Cc1cccc(NC(=O)/C(C#N)=C/c2ccc(Sc3ccccc3)o2)c1C	7
O=C(c1ccc2ccccc2c1)C1CCCN(C(=O)CCn2cnnn2)C1 (centres undefined)	-3

# Quoted from the listing:
# CCc1ccccc1N(C)S(=O)(=O)c1ccc2[nH]cc(C(=O)O)c(=O)c2c1 in Biofilm kill mix shows 6
# O=C(O)c1cc(/C=C/C(=O)c2cc(F)ccc2O)c2c(c1)COCO2 in Biofilm kill mix shows 5

# (more compounds)
SMILES,Biofilm kill mix
CCCC(=O)Nc1ccccc1NC(=O)c1ccc(OCC)cc1,10
Cc1cc(NNC(=O)c2cccc(C(F)(F)F)c2)nc2c1c(C)nn2C,22
CC(=O)NC(Cc1ccc(F)c(F)c1)C(=O)NC1CCN(c2c(Cc3ccccc3)c(C)nc3ncnn23)CC1 (centres undefined),11
CCCCC(=O)Nc1cc([N+](=O)[O-])ccc1F,8
Cc1cc(C(F)F)n2nc(C(=O)Nc3sc4c(c3C(N)=O)CCC4)nc2n1,11
NC(=O)c1ccc(OCC(F)(F)F)nc1,24
O=C(COc1ccc(Cl)cc1)Nc1ncc([N+](=O)[O-])s1,17
NC(=O)c1cccc(C(N)=O)n1,6
O=C(C1=C(O)C(=O)N(CCOCCO)C1c1ccccn1)c1cccs1 (centres undefined),32
CC(C)(C)C1CCc2c(sc(NC(=O)CSc3ncn[nH]3)c2C#N)C1 (centres undefined),16

# Only part of the results is shown. The share of hits here may be higher or lower than overall.
